# GIRK2 act – activators of human GIRK2 potassium channels; G protein-activated inward rectifier potassium channel 2 (Homo sapiens), P48051; HEK293-GIRK2 thallium flux, Thallos fluorescence; calls only for hits at 25 µM; 63,000 compounds, 0.05% hits;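 active = among the strongest 0.2% of first-round signals and kept after retests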;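 note: first round at about 10 µM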
# Target sequence (P48051 whole entry, looked up): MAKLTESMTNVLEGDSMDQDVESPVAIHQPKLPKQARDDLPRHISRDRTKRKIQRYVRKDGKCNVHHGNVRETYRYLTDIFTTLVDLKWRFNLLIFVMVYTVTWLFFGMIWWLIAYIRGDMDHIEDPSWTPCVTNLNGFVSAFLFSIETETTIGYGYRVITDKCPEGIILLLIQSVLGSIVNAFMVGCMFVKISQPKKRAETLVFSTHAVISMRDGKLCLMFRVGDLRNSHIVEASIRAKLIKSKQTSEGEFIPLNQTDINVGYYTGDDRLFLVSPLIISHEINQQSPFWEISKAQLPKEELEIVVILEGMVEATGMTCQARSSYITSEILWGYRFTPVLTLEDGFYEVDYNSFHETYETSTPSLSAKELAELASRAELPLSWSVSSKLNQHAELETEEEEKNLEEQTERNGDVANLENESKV
# Calls only; i = inactive. The list is partial; count on the stated rates, not on these rows.
# Start of the data: the first 5 compounds (preview)
SMILES,GIRK2 act
Cc1nc(N)sc1-c1ccnc(Nc2ccc(N3CCOCC3)cc2)n1,i
COc1ccc(C(=O)NCc2ccc(OCCN(C)C)cc2)cc1OC,i
O=C(O)CCC/C=C\CC1C(=O)CC(O)[C@@H]1/C=C/C(O)COc1ccccc1 (stereo partly specified),i
CCN(CC)CCNC(=O)c1cc(Cl)c(N)cc1OC,i
COc1ccc(Cn2ccc3ccc(C(=O)NO)cc32)cc1,i

# The list itself, from the first entry:
SMILES,GIRK2 act
Cc1nc(N)sc1-c1ccnc(Nc2ccc(N3CCOCC3)cc2)n1,i
COc1ccc(C(=O)NCc2ccc(OCCN(C)C)cc2)cc1OC,i
O=C(O)CCC/C=C\CC1C(=O)CC(O)[C@@H]1/C=C/C(O)COc1ccccc1 (stereo partly specified),i
CCN(CC)CCNC(=O)c1cc(Cl)c(N)cc1OC,i
COc1ccc(Cn2ccc3ccc(C(=O)NO)cc32)cc1,i
OCCN1CCN(CCCN2c3ccccc3Sc3ccc(Cl)cc32)CC1,i
O=C(CCNNC(=O)c1ccncc1)NCc1ccccc1,i
CN(C)CCOC(C)(c1ccccc1)c1ccccn1 (stereo unspecified),i
Cc1ccc(-c2cc3c(=O)n(Cc4nc(-c5ccccc5Br)no4)ncn3n2)c(C)c1,i
CC1COc2c(N3CCN(C)CC3)c(F)cc3c(=O)c(C(=O)O)cn1c23 (stereo unspecified),i

# Some of the entries so far, with values ahead of the structure:
GIRK2 act | Molecule
i | COc1ccc(C(=O)NCc2ccc(OCCN(C)C)cc2)cc1OC
i | O=C(O)CCC/C=C\CC1C(=O)CC(O)[C@@H]1/C=C/C(O)COc1ccccc1 (stereo partly specified)

# Laid out differently: entries from further up
COc1ccc(Cn2ccc3ccc(C(=O)NO)cc32)cc1
  GIRK2 act: i
OCCN1CCN(CCCN2c3ccccc3Sc3ccc(Cl)cc32)CC1
  GIRK2 act: i
O=C(CCNNC(=O)c1ccncc1)NCc1ccccc1
  GIRK2 act: i
CN(C)CCOC(C)(c1ccccc1)c1ccccn1 (stereo unspecified)
  GIRK2 act: i

# The list continues:
SMILES,GIRK2 act
O=C(NC1CCN(Cc2ccccc2)CC1)C1CCCN(c2ncnc3c2oc2ccccc23)C1 (stereo unspecified),i
Cc1nc(C(=O)NCC(=O)O)c(O)c2ccc(Oc3ccccc3)cc12,i
COc1ccc(/C=C/C(=O)Nc2ccccc2C(=O)O)cc1OC,i
CCn1cc(-c2ccnc3[nH]c(-c4cccc(CN(C)C)c4)cc23)c(-c2ccc(NC(=O)N(C)C)cc2)n1,i
CCOc1ccc(-n2c(=O)c3sccc3n(Cc3nc(-c4ccccc4C)no3)c2=O)cc1,i
O=S(=O)(c1cccc2cnccc12)N1CCCNCC1,i
c1ccc(CC2=NCCN2)cc1,i
Cc1nc2ccccn2c(=O)c1CCN1CCC(C(=O)c2ccc(F)cc2)CC1,i
Cc1ccccc1NC(=O)c1nnn(Cc2nc(-c3cccc(Cl)c3)oc2C)c1C,i
CC(COc1ccccc1)NC(C)C(O)c1ccc(O)cc1 (stereo unspecified),i
COc1ccccc1N1CCN(CCCNc2cc(=O)n(C)c(=O)n2C)CC1,i
COc1ccc(CNC(=O)Nc2nnc(-c3ccc4c(c3)CCCC4)o2)cc1,i
O=C(O)CCC/C=C\C[C@@H]1[C@@H](CC[C@@H](O)CCc2ccccc2)[C@H](O)C[C@@H]1O,i
CCC(C)n1ncn(-c2ccc(N3CCN(c4ccc(OCC5COC(Cn6cncn6)(c6ccc(Cl)cc6Cl)O5)cc4)CC3)cc2)c1=O (stereo unspecified),i
O=C(Nc1nc2c(s1)COCC2)c1cccs1,i
COc1cc2c(cc1OC)C(=O)C(CC1CCN(Cc3ccccc3)CC1)C2 (stereo unspecified),i
C=CC1=C(C(=O)O)N2C(=O)[C@@H](NC(=O)/C(=N/O)c3csc(N)n3)[C@H]2SC1,i
Cc1cccc(-c2csc3c(=O)n(Cc4ccc(N5CCCC5=O)cc4)cnc23)c1,i
O=C(O)CCC/C=C\C[C@@H]1[C@@H](CCC(=O)CCc2ccccc2)[C@H](O)C[C@@H]1O,i
CC[N+](C)(CC)CCOC(=O)C(O)(c1ccccc1)C1CCCCC1 (stereo unspecified),i
Oc1ccc(/C=C/c2cc(O)cc(O)c2)cc1,i

# Assay outcomes from PubChem.
